High-throughput results from PubChem BioAssay.
Sa ugtP lethal = compounds lethal to S. aureus RN4220 ugtP deletion mutant; OD600 growth, 16 h; some inactives read as strong as hits; growth inhibition, % (concentration not given with the values); 0.54% of 330,000 active;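 active means z-score under -3 and OD600 up to 0.15 on both plates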;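 further: plate controls were untreated wells for no effect and antibiotic for full effect; wells of about 80 µL received 100 nL stock; the first replicate is given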
RN4220 kill = S. aureus RN4220 growth inhibition. OD600, 16 h. inhibition, % (concentration not given with the values). 0.33% of 330,000 active;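 active means z-score of -3 or lower and OD600 up to 0.18 on both plates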;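 further: plate controls were untreated cells for no effect and reference antibiotic for full effect; stock transfer was 100 nL into about 80 µL; one replicate is shown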
Mtb hypoxia rep = Mtb hypoxia fluorescent reporter inhibition; 0.1% of 300,000 active; fluorescence inhibition, % (concentration not given with the values); AID 1159583; M. tuberculosis hypoxia-regulated fluorescent reporter, fluorescence;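 active means 35 to 45% if threefold the growth effect, above 45% if 1.5-fold the growth effect; inactive means the rest, general growth blockers included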;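 further: wells of about 50 µL received 100 nL stock; 0% = vehicle wells and 100% = reference inhibitor wells; whole bacteria with a GFP reporter of the hypoxia response; strong numbers were not always called active; many hits fall short of the cut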
Bead autofluor = compound fluorescence in toxin protease inhibitor counterscreen; compound autofluorescence counterscreen, microsphere flow cytometry; stronger effect = higher value; fluorescence intensity (no concentration beside the values); 3.1% of 360,000 active;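 active means at least 3 SD above the mean of all compounds, about 16000 in these data; inconclusive means too few beads counted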;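 further: 100 nL of 1 mM stock went into each well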
PrP 5UTR inh = suppresses PrP 5' UTR mRNA reporter expression; cell-based PrP 5' UTR mRNA reporter, plate reader; inhibition, % (test concentration not listed); 0.35% of 340,000 active;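 active means every replicate at 50% or more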;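 further: 0 = median of the neutral control wells; tested in H4 reporter cells; numbers are from one replicate; inactives centre near -14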
BJeLR viability = kills HRASV12-expressing BJeLR cells; BJeLR (HRASV12) viability, CellTiter-Glo ATP luminescence, 48 h; reference of the scale not given here; inhibition, % (test concentration not listed); 0.17% of 300,000 active; AID 1554;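 active means replicate mean above 50%; inconclusive means above 50% but judged a plate artefact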;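 further: 50 nL library stock added to about 25 µL; numbers are from one replicate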
Mtb hypoxia rep growth = recorded beside Mtb hypoxia rep, whose call it bears; growth inhibition, %; measured here: M. tuberculosis growth (absorbance);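 0% = vehicle and 100% = reference antibiotic; read after six days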
Numbers without * were called inactive; u = inconclusive; x = no result given.

item | compound | Sa ugtP lethal | RN4220 kill | Mtb hypoxia rep | Mtb hypoxia rep growth
1 | CC(=O)Nc1ccc(S(=O)(=O)NCC2CCC(C(=O)N3CCCCC3)CC2)cc1 (stereo not drawn) | 7 | 1.9 | -5 | -3
2 | C/C(=N\NC(=O)CNC(=O)c1ccc2c(c1)OCO2)c1ccco1 | x | x | x | x
3 | CCc1ccc(NC(=O)c2cc(-c3ccc(F)cc3)on2)cc1 | -1 | 3.0 | 13 | 10
4 | COC(=O)c1ccc(NS(=O)(=O)c2ccccc2)o1 | -6 | 1.8 | -3 | 11
5 | O=C(Nc1ccccc1)C1=CC(C2CCCCC2)CC(OCCCCO)O1 (stereo not drawn) | -13 | -0.3 | 7 | 9
6 | O=C(NCCCn1ccnc1)c1cc(-c2ccccc2)on1 | 0 | 11 | -6 | 1
7 | COc1ccc(C=Cc2c(-c3cccc(C)c3)oc3ccc(-c4ccc5c(c4)OCO5)cc23)cc1 | -6 | 2.0 | 10 | 7
8 | CCC(C)N(CCNC(=O)CC1Oc2ccc(C)cc2NC1=O)C1CCCCC1 (stereo not drawn) | 7 | 0.8 | x | x
9 | O=C(CN1C(=O)NC2(CCCCCCC2)C1=O)NCc1ccc(Cl)cc1 | 3 | 3.4 | 6 | 3
10 | Cc1nnc(SCC(=O)c2ccc(C(C)C)cc2)s1 | 6 | 3.0 | 14 | 10

item | Bead autofluor | PrP 5UTR inh | BJeLR viability
1 | 3251 | 3 | -2
2 | 2627 | -10 | -2
3 | 4409 | -12 | 7
4 | 4729 | -23 | -2
5 | x | x | x
6 | 3193 | -91 | 3
7 | x | x | x
8 | 6090 | -29 | 8
9 | x | -7 | x
10 | 3366 | -37 | -3

Carrying on.
item | compound | Sa ugtP lethal | RN4220 kill | Mtb hypoxia rep | Mtb hypoxia rep growth
11 | Fc1cccc(COc2ccccc2C(=S)N2CCCC2)c1 | 9 | 16 | 14 | 2
12 | CCOC(=O)c1[nH]c2ccccc2c1NC(=S)Nc1cccc(C)c1 | 9 | 1.5 | 3 | 10
13 | COc1ccc(CCN(C)CCCN2CC(c3ccccc3)CC2=O)cc1OC (stereo not drawn) | 2 | 0.4 | 5 | 9
14 | CCCc1cc(=O)[nH]c(N=C(N)Nc2ccccc2)n1 | 1 | 5.2 | 1 | -4
15 | CCCCOCC(O)CN1CCN(C(C)=O)CC1 (stereo not drawn) | -7 | 2.0 | 4 | 3
16 | CC(=O)c1cc2c(cc1F)C(C)(C)CCC2(C)C | 3 | 1.2 | -3 | 11
17 | COC(=O)CSc1nc(N)nc(C)c1Cl | 8 | 4.3 | 1 | 2
18 | Cc1ccc(NC(=O)CCOc2ccccc2)cc1S(=O)(=O)Nc1ccccc1Cl | 13 | -7.5 | 14 | 9
19 | Cc1cc(C)cc(N2C(N)=NC(N)=NC2c2ccccc2F)c1 (stereo not drawn) | -3 | -3.3 | -9 | 7
20 | CC(C)Sc1nc2ccc(Br)cc2[nH]1 | -1 | 8.3 | 2 | 9

item | Bead autofluor | PrP 5UTR inh | BJeLR viability
11 | 3942 | -24 | 3
12 | 4472 | 10 | -16
13 | 2570 | -6 | -1
14 | x | x | x
15 | 12961 | -16 | -6
16 | 3864 | -8 | x
17 | 4647 | -7 | 9
18 | 2571 | -13 | 1
19 | 3836 | 6 | 13
20 | 4384 | -5 | 5

Only Bead autofluor (5 entries from above):
entry	molecule	Bead autofluor
16	CC(=O)c1cc2c(cc1F)C(C)(C)CCC2(C)C	3864
17	COC(=O)CSc1nc(N)nc(C)c1Cl	4647
18	Cc1ccc(NC(=O)CCOc2ccccc2)cc1S(=O)(=O)Nc1ccccc1Cl	2571
19	Cc1cc(C)cc(N2C(N)=NC(N)=NC2c2ccccc2F)c1 (stereo not drawn)	3836
20	CC(C)Sc1nc2ccc(Br)cc2[nH]1	4384

Returning to the listing, starting 2 compounds before the break.
item | compound | Sa ugtP lethal | RN4220 kill | Mtb hypoxia rep | Mtb hypoxia rep growth
19 | Cc1cc(C)cc(N2C(N)=NC(N)=NC2c2ccccc2F)c1 (stereo not drawn) | -3 | -3.3 | -9 | 7
20 | CC(C)Sc1nc2ccc(Br)cc2[nH]1 | -1 | 8.3 | 2 | 9
21 | CCN1CCN(Cc2cccc(Oc3ccc(Cl)cc3)c2)CC1 | 23 | 1.4 | 15 | 7
22 | O=C1Cc2ccccc2C(=O)N1Cc1cccc(Cl)c1 | 6 | 6.6 | 9 | 6
23 | Cc1nccn1CCCNC(=O)c1nc(Cn2cc([N+](=O)[O-])cn2)no1 | 2 | 1.0 | -8 | -3
24 | N#CC12CCCCC1CC1CCCCC1(C#N)N2N (stereo not drawn) | 8 | 6.2 | 22 | 23
25 | Cc1ccc(-c2nn(-c3ccccc3)cc2C(=O)NC2CCC(O)CC2)cc1 (stereo not drawn) | 3 | 2.2 | 7 | 0
26 | COc1ccc(C(=O)CSc2nnc(-c3ccco3)n2C)cc1 | -9 | 2.2 | 8 | 2
27 | CCCc1cc2c(OC(=O)CC)c(-c3ccc(C(=O)OCC)o3)c(=O)oc2cc1OC | 35 | 39 | 6 | 9
28 | Clc1ccc(CSc2cnnc3ccccc23)cc1Cl | -6 | 3.9 | 24 | 18
29 | O=C(Cn1nnc(-c2ccccc2)n1)NN=Cc1cc([N+](=O)[O-])c(Cl)cc1Cl | 9 | 1.0 | 10 | 6
30 | CCOC1OC(C(=O)N2CCN(Cc3ccccc3)CC2)=CC(C2CCCCC2)C1CCCO (stereo not drawn) | 4 | 5.1 | 4 | 2

item | Bead autofluor | PrP 5UTR inh | BJeLR viability
19 | 3836 | 6 | 13
20 | 4384 | -5 | 5
21 | 5716 | -7 | 0
22 | 3950 | -25 | 4
23 | 4492 | -15 | -4
24 | 4469 | -16 | -3
25 | u | x | x
26 | 11508 | -12 | -2
27 | 2403 | -46 | -3
28 | 3595 | -13 | x
29 | x | x | x
30 | x | x | x

(further entries)
item | compound | Sa ugtP lethal | RN4220 kill | Mtb hypoxia rep | Mtb hypoxia rep growth
31 | O=C(c1ccc(CNc2c(N3CCOCC3)c(=O)c2=O)cc1)N1CC=C(c2ccccc2)CC1 | 15 | -0.2 | x | x
32 | COC(=O)c1cc(NC(=O)c2c(Cl)cnn2C)cc(C(=O)OC)c1 | 10 | 7.8 | 12 | 11
33 | Cc1ccc(-c2nnc(-n3nnc4ccccc43)c3ccccc23)cc1 | 20 | 5.5 | 10 | 12
34 | O=C(CN(Cc1ccco1)Cc1ccco1)Nc1cc(S(=O)(=O)N2CCCCC2)ccc1Cl | -24 | -2.4 | -6 | 10
35 | Cc1ccc(N2C(=O)CC(=O)NC2=O)cc1 | 8 | 4.6 | 5 | 3
36 | COc1cccc(NC(=S)NC2CC(C)(C)NC(C)(C)C2)c1 | 0 | 2.9 | -3 | -5
37 | COc1cccc(CNC(=O)C2CCN(S(=O)(=O)c3ccc4c(c3)OCCO4)CC2)c1 | 2 | -1.1 | 2 | 2
38 | COc1cc(C(=O)NC(=S)N(CCC#N)Cc2cccnc2)cc(OC)c1OC | 1 | 1.8 | -5 | 6
39 | COc1ccc(/C=C/c2noc(-c3ccccc3O)n2)cc1 | 5 | 2.5 | -3 | 6
40 | COc1ccc(C2C(C#N)=C(N)N(c3cccnc3)C3=C2C(=O)CCC3)cc1Cn1cc([N+](=O)[O-])cn1 (stereo not drawn) | -6 | 0.0 | x | x

item | Bead autofluor | PrP 5UTR inh | BJeLR viability
31 | 5423 | -14 | x
32 | 7604 | 3 | -2
33 | 6392 | -11 | 7
34 | u | 3 | x
35 | 11326 | -18 | 3
36 | 1947 | -13 | 6
37 | 5292 | -9 | 6
38 | 3747 | -3 | x
39 | 2179 | -32 | -8
40 | 4641 | 10 | -2

(listing goes on)
item | compound | Sa ugtP lethal | RN4220 kill | Mtb hypoxia rep | Mtb hypoxia rep growth
41 | O=C(CCc1nc2ccccc2c(=O)[nH]1)Nc1ccc(N2CCCCC2)cc1 | x | x | x | x
42 | COCCCNCCCOc1ccc(C(C)(C)c2ccccc2)cc1 | 8 | 4.9 | 6 | 4
43 | CC(=O)n1c(C=Nc2ccc(Cl)cc2)c(O)c2ccccc21 | 3 | 4.4 | -1 | 2
44 | Cc1cc(NC2C3CC4CC(C3)CC2C4)n2ncnc2n1 (stereo not drawn) | -2 | 1.0 | -1 | -5
45 | CCS(=O)(=O)c1ccc2oc(Nc3ccc(C(C)(C)C)cc3)nc2c1 | 1 | -4.7 | -4 | 11
46 | O=C(NCCCn1ccnc1)c1ccc(-c2cccc(C(F)(F)F)c2)o1 | 8 | 6.0 | 23 | 34
47 | COc1ccc(SCCN2CCN(CC(C)C)CCC2=O)cc1 | 0 | 4.0 | 20 | 9
48 | Cc1ccccc1OCC(=O)OCC(=O)NCc1ccco1 | 6 | 0.9 | 2 | -7
49 | O=C1Nc2ccc(Br)cc2C1(O)c1ccccc1 (stereo not drawn) | -1 | 0.2 | -5 | -5
50 | COc1ccc(CCNC(=O)C2CCCN(Cc3nc(-c4cccc(Cl)c4)oc3C)C2)cc1OC (stereo not drawn) | -6 | 5.2 | -1 | 11

item | Bead autofluor | PrP 5UTR inh | BJeLR viability
41 | 4275 | -25 | -4
42 | 10004 | -24 | 3
43 | 4626 | -45 | 13
44 | 11853 | 2 | -4
45 | 4811 | -16 | -5
46 | 2981 | -9 | x
47 | 3250 | -15 | 0
48 | 5289 | -30 | -2
49 | 4209 | 8 | -6
50 | 8271 | -20 | 13

(more compounds)
item | compound | Sa ugtP lethal | RN4220 kill | Mtb hypoxia rep | Mtb hypoxia rep growth
51 | Cc1cccc(CNS(=O)(=O)c2csc(C(N)=O)c2)c1 | 0 | 2.5 | 3 | -3
52 | O=C(N/N=C/C1CCCCC1)c1ccccc1-n1cccc1 | x | x | x | x
53 | CCOc1ccc(NC(=O)CN(C)C(=O)c2cc3c(s2)CCCCC3)cc1OCC | 18 | 2.4 | -3 | -2
54 | O=C(c1ccc([N+](=O)[O-])o1)N(Cc1nnc(-c2ccccc2Cl)o1)C1CC1 | 10 | 12 | x | x
55 | CCC(C)(C)C1CCC2(CC1)NC(=O)N(CC(=O)N(C)CC(=O)Nc1ccccc1C(F)(F)F)C2=O (stereo not drawn) | -6 | -4.7 | -10 | 5
56 | NC(=O)c1cc(N)ccc1N1CCCC1 | 3 | 1.1 | x | x
57 | Cc1ccccc1CN1C[C@@H]2C[C@@H](c3ccc4nsnc4c3)N3CCC[C@@]23C1=O | 2 | 4.3 | 12 | -1
58 | COc1ccc(-c2cc(C(=O)Nc3nc4ccccc4s3)c3ccccc3n2)cc1OC | -16 | -11 | -3 | 0
59 | O=C(CSCc1ccc(F)cc1)Nc1ccc(F)cc1 | 0 | 5.1 | 11 | 4
60 | O=C(CCc1nnc(CCCc2ccccc2)o1)NCC(F)(F)F | 11 | 3.1 | 10 | 11

item | Bead autofluor | PrP 5UTR inh | BJeLR viability
51 | 6430 | -15 | 4
52 | u | -12 | -5
53 | 4751 | 7 | -13
54 | 5746 | -27 | x
55 | 5428 | -2 | -7
56 | 3946 | 7 | -12
57 | 5068 | -19 | 0
58 | 2333 | -14 | -2
59 | 2466 | -25 | 1
60 | 2040 | -43 | 0

The listing continues.
item | compound | Sa ugtP lethal | RN4220 kill | Mtb hypoxia rep | Mtb hypoxia rep growth
61 | COC(=O)C1=C(c2ccc(F)cc2OCc2ccccc2)CC2CCC1N2C(=O)NCCOc1ccccc1 (stereo not drawn) | -9 | -12 | 7 | 5
62 | CCN(C(=O)c1cc2cc3ccc(C)cc3nc2o1)c1ccc(OC)cc1 | 5 | -13 | x | x
63 | CCOC(=O)C1C2COc3ccccc3C2N2C(=O)c3ccc(C)cc3NC(=O)[C@@]12C (stereo partly drawn) | -17 | -1.5 | 2 | 5
64 | CCN1C(=O)c2cccc3c(S(=O)(=O)NC(Cc4c[nH]c5ccccc45)C(=O)O)ccc1c23 (stereo not drawn) | 0 | 2.7 | x | x
65 | COc1cccc(/C=C2\SC(=O)NC2=O)c1OCc1ccc(C(=O)O)cc1 | -2 | 7.8 | 14 | 1
66 | O=C1CN(C(=O)COC(=O)CCNS(=O)(=O)c2ccc(Cl)cc2)c2ccccc2N1 | 2 | 0.9 | 12 | 0
67 | O=C(O)C(c1ccccc1)N1C(=O)c2cccc3cccc(c23)C1=O (stereo not drawn) | 3 | 3.7 | 2 | -7
68 | Cn1c(=O)[nH]c(=O)c2c1nc(SCCO)n2Cc1ccccc1Cl | 3 | -1.6 | 0 | 9

item | Bead autofluor | PrP 5UTR inh | BJeLR viability
61 | x | x | x
62 | 4429 | -39 | -6
63 | x | x | x
64 | 4661 | -9 | 5
65 | 2107 | -3 | 0
66 | 4571 | -10 | 0
67 | 3586 | -11 | -3
68 | 3665 | -6 | -10
